Assay outcomes: PubChem, several laboratories
Sa RN4220 lethal: S. aureus RN4220 growth inhibition; OD600, 16 h; hit rate 0.33% among 330,000; inhibition, % (test concentration not listed); AID 1259311;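 active = z-score of -3 or lower and OD600 up to 0.18 on both plates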;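 note: plate controls were untreated cells for no effect and reference antibiotic for full effect; stock transfer was 100 nL into about 80 µL; one replicate is shown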
Autofluor counter: compound fluorescence in toxin protease inhibitor counterscreen | hit rate 3.1% among 360,000 | fluorescence intensity (no concentration beside the values) | AID 624483 | compound autofluorescence counterscreen, microsphere flow cytometry; stronger effect = higher value;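 active = at least 3 SD above the mean of all compounds, about 16000 in these data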;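 note: 100 nL of 1 mM stock went into each well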
PrP 5UTR inh: suppresses PrP 5' UTR mRNA reporter expression; AID 488862; hit rate 0.35% among 340,000; inhibition, % (concentration not given with the values); cell-based PrP 5' UTR mRNA reporter, plate reader;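 active = every replicate at 50% or more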;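 note: 0 = median of the neutral control wells; tested in H4 reporter cells; numbers are from one replicate; inactives centre near -14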
BJeLR viability: kills HRASV12-expressing BJeLR cells; AID 1554; hit rate 0.17% among 300,000; inhibition, % (concentration not given with the values); BJeLR (HRASV12) viability, CellTiter-Glo ATP luminescence, 48 h; reference of the scale not given here;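 active = replicate mean above 50%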;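 note: 50 nL library stock added to about 25 µL; numbers are from one replicate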
Mtb hypoxia inh: inhibitors of hypoxia-regulated fluorescent reporter in Mycobacterium tuberculosis. M. tuberculosis hypoxia-regulated fluorescent reporter, fluorescence. fluorescence inhibition, % (no concentration beside the values). hit rate 0.1% among 300,000. AID 1159583;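 active = 35 to 45% if threefold the growth effect, above 45% if 1.5-fold the growth effect; inactive = the rest, general growth blockers included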;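 note: wells of about 50 µL received 100 nL stock; 0% = vehicle wells and 100% = reference inhibitor wells; whole bacteria with a GFP reporter of the hypoxia response; strong numbers were not always called active; many hits fall short of the cut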
Sa ugtP lethal: compounds lethal to S. aureus RN4220 ugtP deletion mutant; OD600 growth, 16 h; some inactives read as strong as hits; growth inhibition, % (no concentration beside the values); hit rate 0.54% among 330,000; AID 1259309;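 active = z-score under -3 and OD600 up to 0.15 on both plates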;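 note: plate controls were untreated wells for no effect and antibiotic for full effect; wells of about 80 µL received 100 nL stock; the first replicate is given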
Mtb hypoxia inh growth: also measured in Mtb hypoxia inh; calls as there; growth inhibition, %; measured here: M. tuberculosis growth (absorbance);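 0% = vehicle and 100% = reference antibiotic; read after six days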
The depositor's hits bear a star.

For O=C(Nc1ccccc1-c1ccccc1)NC1CC2CCCC(C1)N2CCc1ccccc1 (stereo not drawn) the results were Sa RN4220 lethal 0.4, Autofluor counter 2153, PrP 5UTR inh -12.6, BJeLR viability 1.2, Mtb hypoxia inh 1.0, Sa ugtP lethal -6.9 and Mtb hypoxia inh growth 4.1.
N#CC(Cc1ccccc1)(Cc1ccccc1)C(=O)NN was read as Sa RN4220 lethal 2.1, Autofluor counter 3280, PrP 5UTR inh -21.3, BJeLR viability 1.6, Mtb hypoxia inh 9.7, Sa ugtP lethal 9.3 and Mtb hypoxia inh growth -2.5.
COc1ccc(OC)c(CNc2c(C=O)c(=O)[nH]c3ccccc23)c1 was read as Sa RN4220 lethal 5.7, Autofluor counter 4008, PrP 5UTR inh -16.4, BJeLR viability 0.2, Mtb hypoxia inh 7.9, Sa ugtP lethal 14.3 and Mtb hypoxia inh growth 13.7.
Screening O=C(C1CCCN(Cc2cccc(Cl)c2)C1)N1CCCCC1 (stereo not drawn) returned Sa RN4220 lethal 1.8, Autofluor counter 3683, PrP 5UTR inh -17.0, BJeLR viability 4.6 and Sa ugtP lethal -3.2.
Cc1ccc(-c2csc(CC(N)=O)n2)cc1 was read as Sa RN4220 lethal 1.4, Autofluor counter 4036, PrP 5UTR inh -29.8, BJeLR viability -2.2, Mtb hypoxia inh 4.7, Sa ugtP lethal 1.6 and Mtb hypoxia inh growth 7.7.
COC(=O)c1cnn(-c2ccccc2)c1C=NNC(=S)Nc1ccccc1 was read as Sa RN4220 lethal -2.9, Mtb hypoxia inh 4.2, Sa ugtP lethal 43.1 and Mtb hypoxia inh growth -2.2.
COc1cc(OC)c(CN2CCCN(C)CC2)cc1Br was read as Sa RN4220 lethal -1.9, Autofluor counter 4199, PrP 5UTR inh -10.9, BJeLR viability 4.3, Mtb hypoxia inh 16.2, Sa ugtP lethal -0.3 and Mtb hypoxia inh growth 2.7.
`CC(=O)c1ccc(N2CCN(c3ccc(S(=O)(=O)N4CCN(C)CC4)cn3)CC2)cc1` gave Sa RN4220 lethal 4.5, Autofluor counter 3315, PrP 5UTR inh -17.8, BJeLR viability -18.8, Mtb hypoxia inh 6.0, Sa ugtP lethal 8.4 and Mtb hypoxia inh growth 12.1.
Screening O=C1CNC(=S)N1Cc1ccc(F)cc1 returned Sa RN4220 lethal 1.2, Autofluor counter 5376, PrP 5UTR inh -30.1, BJeLR viability -12.5, Mtb hypoxia inh 4.1, Sa ugtP lethal 10.4 and Mtb hypoxia inh growth -0.8.
`O=C(COC(=O)c1ccccc1)NCC1CCCO1` (stereo not drawn) gave Sa RN4220 lethal -9.8, Autofluor counter 2925, PrP 5UTR inh -27.8, BJeLR viability 10.7, Mtb hypoxia inh 18.2, Sa ugtP lethal 1.1 and Mtb hypoxia inh growth 7.5.
For O=C(CSc1cc(Cl)ccc1Cl)NCC1CCCO1 (stereo not drawn) the results were Sa RN4220 lethal 1.9, Autofluor counter 22708*, PrP 5UTR inh -37.8, BJeLR viability 2.3, Mtb hypoxia inh 5.1, Sa ugtP lethal 0.3 and Mtb hypoxia inh growth 8.2.
`COc1ccc(S(=O)(=O)CC(=O)c2cc3cccc(C)c3oc2=O)cc1` gave Sa RN4220 lethal 0.9, Autofluor counter 5722, PrP 5UTR inh -9.9, BJeLR viability 5.7, Mtb hypoxia inh -12.5, Sa ugtP lethal -7.4 and Mtb hypoxia inh growth 2.9.
Screening Cc1cc(NC(=S)N(CCCN2CCN(C)CC2)Cc2ccco2)ccc1Cl returned Sa RN4220 lethal 12.0, Autofluor counter 4372, PrP 5UTR inh -5.5, BJeLR viability 4.4, Mtb hypoxia inh -2.6, Sa ugtP lethal 5.2 and Mtb hypoxia inh growth 3.4.
Cc1nn(C)c(Cl)c1CN1CCC(CO)(CC2CCCCO2)CC1 (stereo not drawn) was read as Sa RN4220 lethal 0.7, Autofluor counter 3295, PrP 5UTR inh -15.6, BJeLR viability -0.5, Mtb hypoxia inh -1.3, Sa ugtP lethal 0.3 and Mtb hypoxia inh growth -0.8.
`CCOc1ccc(C(=O)Nc2ncccc2Cl)cc1` gave Sa RN4220 lethal -0.5, Autofluor counter 2387, PrP 5UTR inh -308.4, BJeLR viability 3.3, Mtb hypoxia inh 8.6, Sa ugtP lethal 9.7 and Mtb hypoxia inh growth 3.7.
For CC(OC(=O)c1nsc(Cl)c1Cl)C(=O)NCc1cccs1 (stereo not drawn) the results were Sa RN4220 lethal 2.4, Autofluor counter 3677, PrP 5UTR inh -24.7, BJeLR viability -1.5, Mtb hypoxia inh 10.2, Sa ugtP lethal -2.8 and Mtb hypoxia inh growth 11.5.
COc1ccc(OC)c(-n2c(C)cc(/C=C3\C(=N)N4N=C(CC(=O)N5CCOCC5)SC4=NC3=O)c2C)c1 was read as Sa RN4220 lethal 2.6, Autofluor counter 5591, PrP 5UTR inh -12.2, BJeLR viability 3.2, Mtb hypoxia inh 4.7, Sa ugtP lethal 4.3 and Mtb hypoxia inh growth 3.8.
Screening COC(=O)C1=C(COc2ccc(F)cc2)NC(=O)NC1c1ccc(C)cc1C (stereo not drawn) returned Sa RN4220 lethal 4.1, Autofluor counter 11415, PrP 5UTR inh -12.8, BJeLR viability -3.9, Mtb hypoxia inh -0.4, Sa ugtP lethal -4.0 and Mtb hypoxia inh growth 4.1.
For CCOC(=O)C1(Cc2ccccc2)CCN(Cc2ccc(COC)o2)CC1 the results were Sa RN4220 lethal 6.2, Autofluor counter 2810, PrP 5UTR inh -26.1, BJeLR viability 10.3, Mtb hypoxia inh 12.1, Sa ugtP lethal 6.4 and Mtb hypoxia inh growth 8.2.
For COc1ccc(NC(=O)C/C(C)=N/NC(=O)c2ccncc2)c([N+](=O)[O-])c1 the results were Autofluor counter 4559, PrP 5UTR inh 53.5* and BJeLR viability -3.9.
Screening Cc1ccc(-c2noc(C3CCCN(C(=O)c4ccc(C(C)(C)C)cc4)C3)n2)o1 (stereo not drawn) returned Sa RN4220 lethal -0.9, Autofluor counter 5216, PrP 5UTR inh -39.1, BJeLR viability -2.9, Mtb hypoxia inh -8.1, Sa ugtP lethal 1.3 and Mtb hypoxia inh growth 1.1.
Screening CCOC(=O)Cc1csc2nc(-c3ccccc3)nn12 returned Sa RN4220 lethal 2.7, Autofluor counter 2900, PrP 5UTR inh -15.3, BJeLR viability 2.9, Mtb hypoxia inh 12.2, Sa ugtP lethal -1.3 and Mtb hypoxia inh growth 4.1.
COc1cc(C)c(/C=C(\C#N)C(=O)Nc2ccc(C)cc2)cc1C(C)C was read as Sa RN4220 lethal 6.9, Autofluor counter 2031, PrP 5UTR inh -10.1, BJeLR viability 0.8, Mtb hypoxia inh 10.4, Sa ugtP lethal 5.2 and Mtb hypoxia inh growth 2.9.
Screening CNC(=O)/C(C#N)=C/c1c(N2CCN(c3ccccc3)CC2)nc2c(C)cccn2c1=O returned Sa RN4220 lethal 5.0, Autofluor counter 2941, PrP 5UTR inh 1.5, BJeLR viability 4.6, Mtb hypoxia inh 8.1, Sa ugtP lethal 2.1 and Mtb hypoxia inh growth 2.3.
Cc1ccc(C)c(NC(=O)Cc2ccc(S(=O)(=O)N3CCCCC3)s2)c1 was read as Sa RN4220 lethal 1.7, Autofluor counter 10363, PrP 5UTR inh -14.2, BJeLR viability -4.9, Mtb hypoxia inh 5.0, Sa ugtP lethal -0.8 and Mtb hypoxia inh growth 5.2.
CCC(=O)Nc1ccc(Oc2ccc(NC(=O)CC)c(NC(=O)CC)c2)cc1 was read as Sa RN4220 lethal 1.0, Autofluor counter 4123, PrP 5UTR inh -8.6, BJeLR viability -1.3, Mtb hypoxia inh -2.2, Sa ugtP lethal 7.3 and Mtb hypoxia inh growth 18.7.
For O=C1CCC(C(=O)Nc2cccc(Br)c2)N1 (stereo not drawn) the results were Sa RN4220 lethal 1.5, Autofluor counter 3292, PrP 5UTR inh -27.5, BJeLR viability -12.8, Mtb hypoxia inh 12.3, Sa ugtP lethal 4.3 and Mtb hypoxia inh growth 2.7.
`CCc1nc2ccc(C(=O)N3CCN(c4ccc([N+](=O)[O-])cc4)CC3)cc2nc1CC` gave Sa RN4220 lethal 3.1, Autofluor counter 5341, PrP 5UTR inh -3.1, BJeLR viability -0.1, Mtb hypoxia inh -1.9, Sa ugtP lethal 1.6 and Mtb hypoxia inh growth -4.1.
`CC(=O)N/C(=C\c1ccc(F)cc1)C(=O)NC(Cc1c[nH]c2ccccc12)C(=O)O` (stereo not drawn) gave Sa RN4220 lethal 2.1, Autofluor counter 1936, PrP 5UTR inh -21.2, BJeLR viability -6.7, Mtb hypoxia inh -4.7, Sa ugtP lethal 4.2 and Mtb hypoxia inh growth -4.4.
`COC(=O)C1=C(C)N=c2s/c(=C/c3cccs3)c(=O)n2C1c1cccs1` (stereo not drawn) gave Autofluor counter 3501, PrP 5UTR inh -21.6 and BJeLR viability -10.7.
COc1ccc(Nc2nc(N3CCOCC3)nc(N3CCOCC3)n2)cc1Cl was read as Sa RN4220 lethal 1.0, Autofluor counter 3882, PrP 5UTR inh -6.5, BJeLR viability -2.6, Mtb hypoxia inh 9.0, Sa ugtP lethal -6.8 and Mtb hypoxia inh growth -2.5.
Screening O=C(CSc1nc2c(sc3ccccc32)c(=O)n1CCCN1CCOCC1)NCC1CCCO1 (stereo not drawn) returned Sa RN4220 lethal 0.4, Autofluor counter 3949, PrP 5UTR inh -118.8, BJeLR viability 9.0, Mtb hypoxia inh 18.4, Sa ugtP lethal 0.5 and Mtb hypoxia inh growth 9.4.
`CCc1cc2c(=O)c(-c3ccc(F)cc3)c(C)oc2cc1OCC(=O)O` gave Sa RN4220 lethal 9.6, Autofluor counter 3929, PrP 5UTR inh -19.6, BJeLR viability -11.9, Mtb hypoxia inh 14.0, Sa ugtP lethal -2.2 and Mtb hypoxia inh growth 6.3.
CN(C)/N=C/c1ccc(OC(=O)c2cccc([N+](=O)[O-])c2)cc1 was read as Autofluor counter 3379, PrP 5UTR inh -7.6 and BJeLR viability 7.2.
Screening O=C(CN1C(=O)NC2(CCCCC2)C1=O)Nc1cc(C(F)(F)F)ccc1N1CCCCC1 returned Sa RN4220 lethal -2.4, Autofluor counter 5192, PrP 5UTR inh -11.2, BJeLR viability 4.4, Mtb hypoxia inh 11.6, Sa ugtP lethal -2.0 and Mtb hypoxia inh growth 3.9.
`CCOC(=O)CCN(C(=O)Nc1ccccc1)C1CCCCC1` gave Sa RN4220 lethal 0.8, Autofluor counter 3372, PrP 5UTR inh -22.7, Mtb hypoxia inh 2.0, Sa ugtP lethal -4.0 and Mtb hypoxia inh growth 19.0.
Screening C(=N\Nc1nc(N2CCOCC2)nc(N2CCOCC2)n1)/c1ccncc1 returned Autofluor counter 2490, PrP 5UTR inh -3.9 and BJeLR viability -3.5.
For COc1ccc(OCC(=O)NNC(=O)Nc2cccc(Cl)c2)cc1 the results were Sa RN4220 lethal -1.4, Autofluor counter 5787, PrP 5UTR inh 5.9, BJeLR viability 5.1, Mtb hypoxia inh -4.6, Sa ugtP lethal -2.2 and Mtb hypoxia inh growth 8.3.
For C=CCn1c(C)nc2ccccc2c1=O the results were Sa RN4220 lethal 2.0, Autofluor counter 3274, PrP 5UTR inh -14.5, BJeLR viability -2.9, Mtb hypoxia inh -5.8, Sa ugtP lethal 4.8 and Mtb hypoxia inh growth 4.9.
COc1ccc(NC(=O)CSc2nnnn2-c2ccccc2OC)c(OC)c1 was read as Sa RN4220 lethal 2.1, Autofluor counter 3003, PrP 5UTR inh 4.0, BJeLR viability -2.3, Mtb hypoxia inh 0.5, Sa ugtP lethal 0.4 and Mtb hypoxia inh growth -8.4.

3 compounds from above, sorted by molecular weight, low to high.
N#CC(Cc1ccccc1)(Cc1ccccc1)C(=O)NN was read as Sa RN4220 lethal 2.1, Autofluor counter 3280, PrP 5UTR inh -21.3, BJeLR viability 1.6, Mtb hypoxia inh 9.7, Sa ugtP lethal 9.3 and Mtb hypoxia inh growth -2.5.
For O=C1CCC(C(=O)Nc2cccc(Br)c2)N1 (stereo not drawn) the results were Sa RN4220 lethal 1.5, Autofluor counter 3292, PrP 5UTR inh -27.5, BJeLR viability -12.8, Mtb hypoxia inh 12.3, Sa ugtP lethal 4.3 and Mtb hypoxia inh growth 2.7.
COc1ccc(Nc2nc(N3CCOCC3)nc(N3CCOCC3)n2)cc1Cl was read as Sa RN4220 lethal 1.0, Autofluor counter 3882, PrP 5UTR inh -6.5, BJeLR viability -2.6, Mtb hypoxia inh 9.0, Sa ugtP lethal -6.8 and Mtb hypoxia inh growth -2.5.
